UCH37 inh: human UCH37 deubiquitinating enzyme inhibition; Q9Y5K5; purified proteasome/UCH37, Ub-AMC cleavage fluorescence; inhibition, % (test concentration not listed); 330,000 tested, 0.33% active; AID 588478;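 active = mean of two replicates above 20%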;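 also: 0% = compound-free wells with enzyme and 100% = wells lacking proteasome; stock transfer was 100 nL into about 20 µL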
Target sequence (Q9Y5K5 whole entry, looked up): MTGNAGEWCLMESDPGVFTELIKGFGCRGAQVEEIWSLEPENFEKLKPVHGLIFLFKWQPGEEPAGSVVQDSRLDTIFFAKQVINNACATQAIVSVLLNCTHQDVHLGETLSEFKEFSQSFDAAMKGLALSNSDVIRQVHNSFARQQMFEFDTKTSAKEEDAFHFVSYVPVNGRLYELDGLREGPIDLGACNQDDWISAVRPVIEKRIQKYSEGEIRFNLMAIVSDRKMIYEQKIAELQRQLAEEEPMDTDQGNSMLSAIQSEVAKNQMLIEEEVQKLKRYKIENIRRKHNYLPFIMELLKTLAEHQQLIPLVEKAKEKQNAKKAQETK
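System: Proteasome-associated human UCH37 deubiquitinase; Input: 0.15 nM proteasome in added enzyme buffer; Also added: Ub-AMC substrate from 1 µM stock; Incubation: 30 min compound-proteasome preincubation then 25 min substrate reaction, room temperature; Detection: fluorescence, ex 355 nm, em 460 nm; Read-out: % inhibition of Ub-AMC cleavage fluorescence; Benchmarks: no-proteasome and no-compound wells.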
Ecoli growth: blocks Escherichia coli growth | 330,000 tested, 0.21% active | OD600, 23 h; stronger effect = lower value | OD600 absorbance (no concentration beside the values);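 active = OD600 absorbance below the run mean of sample wells minus 3.6 SD, in any replicate, cut at about 0.56 in these data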;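 also: stock transfer was 300 nL into about 60 µL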
A1 inh: inhibitors of the anti-apoptotic protein A1, read as caspase activation; caspase activation, % (no concentration beside the values); AID 2462; 330,000 tested, 0.066% active; MEF A1-2A-BIM cells, Caspase-Glo 3/7 luminescence, 3 h; percent of clofoctol response, vehicle zero;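 active = over half of replicate activation scores above 10%, or exactly half above 10 with the replicate mean above 10; inconclusive = replicate mean below 10 yet half the replicates above 10; inactive = over half of replicates below 10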;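 also: wells of about 30 µL received 50 nL stock; many hits fall short of the cut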
MLL AF4-AF9 inh: inhibitors of human MLL-AF4/AF9 interaction | P42568 | AlphaScreen, biotin-AF4 peptide binding to FLAG-AF9 | inhibition, % at 10 µM | 350,000 tested, 0.47% active | AID 651704;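 active = every replicate reaching a set inhibition limit, whatever the replicate mean, cut at about 25% in these data; inconclusive = mean inhibition reaches that limit but some replicates miss it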;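 also: 0% = plate neutral control median and 100% = total signal loss; the record names both 10 and 1 µM as test concentration; the first replicate is given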
Target sequence (P42568 whole entry, looked up): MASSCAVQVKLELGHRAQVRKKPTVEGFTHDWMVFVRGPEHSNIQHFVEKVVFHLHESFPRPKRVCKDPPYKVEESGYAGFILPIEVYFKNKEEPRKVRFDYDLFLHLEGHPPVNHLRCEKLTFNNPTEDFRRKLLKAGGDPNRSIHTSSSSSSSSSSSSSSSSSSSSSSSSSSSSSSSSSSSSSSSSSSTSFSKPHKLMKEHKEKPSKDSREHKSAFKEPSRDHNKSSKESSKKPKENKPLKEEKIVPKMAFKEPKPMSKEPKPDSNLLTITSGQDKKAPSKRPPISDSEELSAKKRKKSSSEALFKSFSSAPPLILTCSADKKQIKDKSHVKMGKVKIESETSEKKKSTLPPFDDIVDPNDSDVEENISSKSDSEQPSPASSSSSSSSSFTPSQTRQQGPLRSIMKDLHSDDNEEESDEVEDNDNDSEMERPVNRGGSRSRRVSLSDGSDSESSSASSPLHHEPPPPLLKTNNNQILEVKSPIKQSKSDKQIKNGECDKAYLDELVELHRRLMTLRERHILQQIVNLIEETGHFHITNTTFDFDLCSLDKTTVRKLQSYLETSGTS
FGF22 binding: shifts melting point of recombinant human FGF22; calls only at 9.99 µM; 340,000 tested, 1.5% active; Q9HCT0; recombinant FGF22 thermal shift, SYPRO orange fluorescence; percent of sucrose octasulfate shift, DMSO zero;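 active = melting point raised past a set limit in the mean and every replicate; inconclusive = no clear call; three in four hits are not shown here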
Target sequence (Q9HCT0 whole entry, looked up): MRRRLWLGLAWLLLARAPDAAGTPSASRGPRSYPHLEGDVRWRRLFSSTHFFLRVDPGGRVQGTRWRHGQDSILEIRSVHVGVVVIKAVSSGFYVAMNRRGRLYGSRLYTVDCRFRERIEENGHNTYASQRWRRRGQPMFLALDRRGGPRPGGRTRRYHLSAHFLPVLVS
Ecoli rRNA inh: inhibitors of bacterial rRNA selective over humanized ribosomes; E. coli WT GFP vs humanized-ribosome RFP mutants, fluorescence, 24 h; stronger effect = lower value; DMSO median 0, no signal -100; 350,000 tested, 1.6% active; GFP signal change (wild-type ribosome), % (test concentration not listed);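 active = significant combined selectivity score with lowered wild-type GFP, culture density cut under 30%, mutant RFP and density less affected; inactive = any of these conditions unmet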; also: one replicate is shown; some compounds called inactive have numbers as strong as hits
T cruzi inh: blocks replication of Trypanosoma cruzi; T. cruzi beta-gal in NIH3T3, luminescence, 90 h; inhibition, % (test concentration not listed); 300,000 tested, 1.4% active; AID 1885;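 active = mean inhibition across valid replicates above about 55%, limit read from the data; inconclusive = mean below that limit but half or more replicates reach it; inactive = mean below it, under half of replicates reach it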;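 also: signal also drops with host cell toxicity which is not excluded here; 0% = plate median of DMSO wells and 100% = zero luminescence signal; higher percent means less beta-gal luminescence so fewer parasites; stock transfer was 50 nL into about 50 µL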
Beta cell apopt: blocks beta cell apoptosis. INS-1E cytokine-induced death, ATP luminescence, 48 h; percent of positive-control rescue, neutral wells zero. protection from apoptosis, % (test concentration not listed). 300,000 tested, 0.8% active. AID 435005;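 active = all replicates at 75% or more, or half of them and the mean; inconclusive = half reach 75% but not the mean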;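 also: 0% = cytokine-treated negative control wells and 100% = positive control rescue; higher means more ATP so stronger rescue from cytokine killing; wells of about 40 µL received 100 nL stock; the first replicate is given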
Ecoli rRNA inh OD600: second read-out of Ecoli rRNA inh, no call of its own (marks repeat the call); OD600 change, %; measured here: OD600 growth;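 optical density of the mix in the first replicate; 0 = DMSO median and -100 = no signal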
Ecoli rRNA inh RFP: also measured in Ecoli rRNA inh; calls as there; RFP signal change, %; measured here: RFP humanized mutant strains;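 first replicate; 0 = DMSO median and -100 = no signal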
* marks the source's active call; other numbers are inactive results; i = inactive; ? = inconclusive; . = not tested or not shown; & = joins results of further samples. An excerpt, so the mix of outcomes need not match the whole.

mol | UCH37 inh | Ecoli growth | A1 inh | MLL AF4-AF9 inh | FGF22 binding | Ecoli rRNA inh | Ecoli rRNA inh OD600 | Ecoli rRNA inh RFP | T cruzi inh | Beta cell apopt
CC(C)CC(=O)/C=C/n1c(=S)oc2ccccc21 | 6.5 | 0.696 | -0.3 | -12.4 | i | 9.7 | 6.9 | -0.2 | -2.9 | 65.3
C/C(=N\NC(=S)Nc1ccc(C)c(C)c1)c1ccc(N2CCOCC2)cc1 | . | . | -0.2 | 13.8 | i | 8.8 | 3.9 | 2.4 | 23.4 | 30.3
O=C(CN1C(=O)c2ccccc2C1=O)Nc1ccccc1 | 0.1 | 0.652 | 1.4 | -0.5 | i | 5.5 | 5.9 | 2.4 | -6.3 | -1.3
CNC(C)C#Cc1ccc2c(=O)c3cc(C)c(C)cc3oc2c1 (centres undefined) | -8.9 | 0.71 | -0.8 | -1.1 | i | -10.9 | -3.6 | 0.3 | -5.4 | -8.3
O=C1NCCCC1C(=O)N1CCN(C(=O)c2ccco2)CC1 (centres undefined) | 2.9 | 0.677 | -1.2 | -2.0 | i | 2.6 | 7.0 | 0.9 | -6.4 | -2.1
O=C(C1CCN(S(=O)(=O)c2cccc3nonc23)CC1)N1CCCCC1 | 4.5 | 0.686 | 0.4 | 0.0 | i | 2.0 | 10.2 | -2.9 | -6.1 | -6.0
Cc1ccc(C)c(NC(=O)COC(=O)CNC(=O)C2CCCCC2)c1 | 1.7 | 0.693 | 0.0 | -9.2 | i | 3.3 | 10.4 | -2.3 | . | -3.2
COc1ccccc1CN(C)CC(=O)NC1CCCc2ccccc21 (centres undefined) | 0.0 | 0.684 | 0.2 | 1.7 | i | -15.7 | -15.7 | -0.7 | 26.2 | -2.0
CCOC(=O)N1CCN(c2c(NCc3ccccc3OC)c(=O)c2=O)CC1 | 8.7 | 0.711 | 0.6 | 2.0 | i | 9.3 | 10.8 | -1.4 | 4.5 | .
Cc1cc(Br)ccc1NC(=O)CNC(=O)CN1C(=O)NC2(CCCCCC2)C1=O | 1.0 | 0.7 | 0.2 | . | . | . | . | . | 8.7 | -9.3
CCOC(=O)N1CCC(N2C(=O)c3ccccc3C2Nc2cc(C)cc(C)c2)CC1 (centres undefined) | 1.1 | 0.712 | 0.4 | -6.7 | i | -2.6 | -3.3 | 9.7 | -2.0 | 2.0
CN1C(=O)/C(=C/c2ccc(OCc3ccc(C(=O)O)cc3)c(Cl)c2)NC1=S | 11.5 | 0.644 | 0.0 | 1.0 | i | -9.0 | -2.8 | 1.8 | -2.7 | -3.4
CC(NC(=O)NC1CCCCC1)c1ccccc1 (centres undefined) | 3.6 | 0.712 | 0.6 | -4.2 | i | 6.6 | 2.9 | 0.5 | -12.8 | -2.4
COc1ccc(Br)c(C(=O)Nc2cccc(Cl)c2Cl)c1 | 0.7 | 0.691 | 0.3 | . | . | . | . | . | -1.0 | -1.0
CC(=O)c1nc(-c2ccccc2)sc1C | 8.8 | 0.671 | -2.9 | -2.1 | i | 0.4 | 3.9 | -0.8 | -3.5 | 0.4
O=C(NCc1ccccc1)NC(=O)c1ccccc1F | 3.0 | 0.719 | -2.3 | -10.7 | i | -0.6 | -11.6 | 0.6 | -1.6 | -9.9
CC(NC(=O)CCCC1CCCCC1)c1ccc(S(N)(=O)=O)cc1 (centres undefined) | 4.7 | 0.71 | 0.2 | 0.2 | i | 2.8 | -0.3 | 1.0 | 6.4 | -1.5
O=C(CSc1nc2ccccc2c(=O)n1Cc1ccco1)N1CCCCCC1 | 5.0 | 0.674 | 0.2 | . | . | . | . | . | 43.3 | 0.9
Cc1cc(NC(=O)COc2cccc(Oc3ccccc3)c2)no1 | 4.7 | 0.699 | 0.2 | . | . | . | . | . | -11.3 | 3.0
O=C(C[n+]1ccccc1)N/N=C/c1cccs1 | . | . | 0.8 | -1.5 | i | 18.5 | 18.8 | 0.8 | -2.5 | -6.5
COCCCNC(=O)[C@H]1N2C(=O)c3ccccc3C2SC1(C)C (some centres undefined) | -0.8 | 0.644 | 1.7 | -18.6 | i | 0.7 | -1.3 | 1.5 | -8.7 | -4.1
COc1ccc(-c2ocnc2C(=O)N2CCN(C(=O)C(c3ccccc3)c3ccccc3)CC2)cc1 | 3.0 | 0.698 | -0.3 | 3.9 | i | -1.7 | -11.9 | 5.2 | 16.0 | -1.5
COc1ccc(C(C)NC(=O)c2ccncc2)cc1OC (centres undefined) | 3.4 | 0.715 | 0.3 | 1.9 | i | 13.4 | 5.1 | 2.8 | -4.6 | -9.6
COc1ccc(Cc2nnc(SCC(=O)NC3(C#N)CCCCC3)n2N)cc1 | 0.9 | 0.596 | 1.0 | ? | i | 3.0 | 4.4 | -0.7 | -7.8 | 0.8
CC(=O)c1cc2c(cc1NS(=O)(=O)c1ccc(F)cc1)OCO2 | -0.1 | 0.725 | 0.4 | -0.4 | i | -0.7 | 0.1 | 3.0 | -6.2 | -4.5
COc1ccc(C2=NOC(C(=O)Nc3cc(C)nn3-c3ccccc3)C2)cc1OC (centres undefined) | 1.4 | 0.731 | 1.4 | -2.5 | i | 4.7 | 4.5 | -8.3 | -1.0 | 14.2
O=C1CC(SCc2nc3ccccc3[nH]2)C(=O)N1c1ccc(Cl)cc1 (centres undefined) | -2.3 | 0.676 | 0.2 | . | . | . | . | . | -26.7 | -10.1
COc1ccc2c(c1)CCc1cnoc1-2 | 0.9 | 0.632 | . | -2.4 | i | . | . | . | . | .
Cc1ccc(CN2CCN(C(=O)C3CCC3)CC2)cc1 | 1.5 | 0.653 | -0.2 | 5.6 | i | 6.7 | 6.9 | -4.3 | -1.6 | 0.4
Cc1ccc(NC(=O)CSc2nn(-c3ccccc3)c(=S)s2)cc1S(=O)(=O)N(C)C | 1.9 | 0.688 | 2.1 | . | . | . | . | . | 27.4 | -0.5
CN(C)C(=O)c1ccc(NC(=O)COC(=O)CCN=C2NS(=O)(=O)c3ccccc32)cc1 | -1.9 | 0.658 | . | 0.8 | i | 8.4 | 12.5 | -3.0 | . | .
O=C(COc1ccccc1F)Nc1ccc2[nH]c(=O)[nH]c2c1 | 1.1 | 0.708 | -0.2 | -0.5 | i | 5.7 | 6.5 | 1.3 | -6.4 | 3.9
CC(C)C(NC(=O)c1ccccc1F)C(=O)Nc1nccs1 (centres undefined) | 3.3 | 0.726 | -0.6 | -0.9 | i | 3.8 | 3.2 | 3.4 | -14.2 | 5.5
COc1ccc2occ(C(C)=O)c2c1 | 2.9 | 0.583 | -0.3 | . | . | 21.9 | 15.0 | 4.7 | -7.6 | -10.4
O=C(CSc1nnnn1-c1ccc(F)cc1)Nc1ccccc1F | 1.6 | 0.667 | 0.9 | -4.5 | i | 7.0 | 7.7 | -1.0 | -8.0 | -11.9
CCOC(=O)c1sc(C)c2c(=O)n(Cc3ccc(Cl)cc3)c(C)nc12 | -6.9 | 0.728 | 0.3 | . | . | . | . | . | 7.3 | 4.4
COc1ccccc1-c1nnc2sc(-c3ccc(N(C)C)cc3)nn12 | -167.2 | 0.675 | 0.4 | -0.7 | i | -7.2 | -27.9 | -6.8 | 23.3 | -0.5
Cc1ccc(-c2nnc(-c3cccc4ccccc34)o2)cc1 | -43.1 | 0.656 | . | 7.1 | i | 13.7 | 14.7 | 5.2 | . | .
CCCN1CCCc2ccccc21 | 5.0 | 0.684 | 0.6 | -29.9 | i | 13.6 | 3.8 | 2.0 | -3.5 | 19.2
CCc1ccc(NC(=O)C2CCCN(S(=O)(=O)c3c(C)[nH]c(=O)[nH]c3=O)C2)cc1 (centres undefined) | 2.2 | 0.642 | 0.9 | -0.2 | i | 13.1 | 16.9 | 3.4 | -4.2 | -1.8
CN(C)/C=C1\C(=O)ON=C1c1ccccc1 | 2.3 | 0.713 | 0.4 | -2.8 | i | 6.5 | 5.1 | 1.2 | -17.3 | -6.3
N#Cc1ccc(CSc2nnc(Cc3cccs3)n2Cc2ccco2)cc1 | -3.9 | 0.714 | 0.1 | . | . | . | . | . | 9.1 | 0.9
COc1ccc2oc(/C=C/N(C)C)c(C(=O)c3ccc(Cl)cc3)c2c1 | 3.3 | 0.711 | 0.6 | 2.7 | i | 7.2 | 8.0 | 6.9 | 10.5 | -3.9
CC(C)(C)c1ccc(-n2ncc3c2CCCC3NC(=O)c2cnccn2)cc1 (centres undefined) | -15.8 | 0.616 | 0.2 | 2.4 | i | 0.6 | 4.5 | -2.5 | -6.4 | 26.4
COc1cc(OC)cc(C(=O)NC(=S)Nc2ccc3c4c(cccc24)CC3)c1 | 3.4 | 0.745 | 0.7 | . | . | . | . | . | 39.9 | 3.6

As entered above.
For Beta cell apopt, `CCc1ccc(NC(=O)C2CCCN(S(=O)(=O)c3c(C)[nH]c(=O)[nH]c3=O)C2)cc1` (centres undefined) is entered as -1.8
For UCH37 inh, `CCOC(=O)c1sc(C)c2c(=O)n(Cc3ccc(Cl)cc3)c(C)nc12` is entered as -6.9
For UCH37 inh, `N#Cc1ccc(CSc2nnc(Cc3cccs3)n2Cc2ccco2)cc1` is entered as -3.9

Following part.
mol | UCH37 inh | Ecoli growth | A1 inh | MLL AF4-AF9 inh | FGF22 binding | Ecoli rRNA inh | Ecoli rRNA inh OD600 | Ecoli rRNA inh RFP | T cruzi inh | Beta cell apopt
C#CCNC(=O)C1=C[C@H](C2CC2)C[C@H](OCCCCO)O1 | -1.4 | . | -0.4 | 1.8&2.7 | i | 16.3 | 8.7 | -4.2 | -11.4 | 0.1
Cc1ccc(C(=O)COc2ccccc2-c2ccccc2)cc1C | 4.5 | 0.708 | 0.2 | . | . | . | . | . | 2.4 | -2.5
N#CCCn1nc(-c2ccccc2)c2ccccc2c1=O | 2.9 | 0.717 | 0.0 | -9.0 | i | 1.3 | -3.1 | -1.3 | -3.1 | .
COc1cc(NS(=O)(=O)c2ccc(NC(=O)c3cccs3)cc2)nc(OC)n1 | 5.3 | 0.689 | 0.1 | 7.0 | i | 0.1 | -9.5 | -1.5 | -7.5 | 0.0
Nc1nc(Cl)nc2c1ncn2[C@H]1C[C@H](O)[C@@H](CO)O1 | 0.7 | . | ? | 5.3 | i | . | . | . | 21.0 | 31.4
CCc1nccn1S(=O)(=O)c1cc(OC)c(Cl)cc1OC | 6.8 | 0.659 | 1.2 | . | . | . | . | . | -3.9 | -1.0

Complete entries from above:
Listed for Cc1ccc(C(=O)COc2ccccc2-c2ccccc2)cc1C → UCH37 inh = 4.5; Ecoli growth = 0.708; A1 inh = 0.2; MLL AF4-AF9 inh = .; FGF22 binding = .; Ecoli rRNA inh = .; Ecoli rRNA inh OD600 = .; Ecoli rRNA inh RFP = .; T cruzi inh = 2.4; Beta cell apopt = -2.5
Listed for CCc1nccn1S(=O)(=O)c1cc(OC)c(Cl)cc1OC → UCH37 inh = 6.8; Ecoli growth = 0.659; A1 inh = 1.2; MLL AF4-AF9 inh = .; FGF22 binding = .; Ecoli rRNA inh = .; Ecoli rRNA inh OD600 = .; Ecoli rRNA inh RFP = .; T cruzi inh = -3.9; Beta cell apopt = -1.0
